Bfl-1 A1 inh: inhibitors of the anti-apoptotic protein A1, read as caspase activation; MEF A1-2A-BIM cells, Caspase-Glo 3/7 luminescence, 3 h; percent of clofoctol response, vehicle zero; actives 0.066% (n = 330,000); caspase activation, % (no concentration beside the values);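 active = over half of replicate activation scores above 10%, or exactly half above 10 with the replicate mean above 10; inconclusive = replicate mean below 10 yet half the replicates above 10; inactive = over half of replicates below 10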;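 note: wells of about 30 µL received 50 nL stock; many hits fall short of the cut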
HNF4A DNA FP: change in binding of human HNF4 alpha to DNA | P41235 | HNF4a-FITC DNA binding, fluorescence polarization, 1 h | activity change, % at 10 µM | actives 0.3% (n = 360,000) | AID 1224865; in the data active = activity change above about 30%, passing the limit was not always enough;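 note: controls were the assay level and a saturating level of protein; the project sought stronger binding though the title names inhibitors; some compounds called inactive have numbers as strong as hits; positive values seem to mean higher polarization but the record does not say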
E coli growth: inhibitors of Escherichia coli growth. actives 0.21% (n = 330,000). OD600, 23 h; stronger effect = lower value. OD600 absorbance (test concentration not listed);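 active = OD600 absorbance below the run mean of sample wells minus 3.6 SD, in any replicate, cut at about 0.56 in these data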;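 note: stock transfer was 300 nL into about 60 µL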
UCH37 DUB inh: inhibitors of human deubiquitinating enzyme UCH37. purified proteasome/UCH37, Ub-AMC cleavage fluorescence. inhibition, % (no concentration beside the values). actives 0.33% (n = 330,000). AID 588478;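 active = mean of two replicates above 20%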;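 note: 0% = compound-free wells with enzyme and 100% = wells lacking proteasome; stock transfer was 100 nL into about 20 µL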
Target sequence (Q9Y5K5 whole entry, looked up): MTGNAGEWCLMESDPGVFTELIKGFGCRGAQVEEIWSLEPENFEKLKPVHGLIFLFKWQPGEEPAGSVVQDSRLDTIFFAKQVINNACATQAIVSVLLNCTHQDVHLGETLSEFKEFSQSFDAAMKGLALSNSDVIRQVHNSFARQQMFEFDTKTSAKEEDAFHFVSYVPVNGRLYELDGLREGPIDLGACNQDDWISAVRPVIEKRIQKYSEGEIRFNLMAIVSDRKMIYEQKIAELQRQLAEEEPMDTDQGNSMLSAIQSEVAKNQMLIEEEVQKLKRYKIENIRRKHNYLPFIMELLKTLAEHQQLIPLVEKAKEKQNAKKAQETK
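System: Proteasome-associated human UCH37 deubiquitinase; Input: 0.15 nM proteasome in added enzyme buffer; Also added: Ub-AMC substrate from 1 µM stock; Incubation: 30 min compound-proteasome preincubation then 25 min substrate reaction, room temperature; Detection: fluorescence, ex 355 nm, em 460 nm; Read-out: % inhibition of Ub-AMC cleavage fluorescence; Benchmarks: no-proteasome and no-compound wells.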
LANA-H2A inh: blocks KSHV LANA binding to histone H2A/H2B; Q9QR71; cell-free LANA-H2A/H2B peptide, fluorescence polarization; inhibition, % (concentration not given with the values); actives 0.6% (n = 320,000); AID 2629; in the data active = inhibition mostly above about 10%, no sharp cut-off; inactive = mostly below about 6.7%;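 note: stock transfer was 7.5 nL into about 10 µL; 0% = median of vehicle wells and 100% = median of positive control wells; one replicate is shown; the record names a cut of 25% in any replicate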
Beta2AR agonist: activates human beta-2 adrenergic receptor causing internalization. P07550. Am2.2-beta2AR cells, FAP receptor internalization, flow cytometry; reference of the scale not given here. response, % (test concentration not listed). actives 0.43% (n = 340,000);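 active = response above a set limit, near 3 SD of response in nonfluorescent compounds, cut at about 42% in these data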;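 note: stock transfer was 100 nL into about 11 µL; a reference agonist was the positive control; negative values mostly stem from fluorescent compounds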
Target sequence (P07550 whole entry, looked up): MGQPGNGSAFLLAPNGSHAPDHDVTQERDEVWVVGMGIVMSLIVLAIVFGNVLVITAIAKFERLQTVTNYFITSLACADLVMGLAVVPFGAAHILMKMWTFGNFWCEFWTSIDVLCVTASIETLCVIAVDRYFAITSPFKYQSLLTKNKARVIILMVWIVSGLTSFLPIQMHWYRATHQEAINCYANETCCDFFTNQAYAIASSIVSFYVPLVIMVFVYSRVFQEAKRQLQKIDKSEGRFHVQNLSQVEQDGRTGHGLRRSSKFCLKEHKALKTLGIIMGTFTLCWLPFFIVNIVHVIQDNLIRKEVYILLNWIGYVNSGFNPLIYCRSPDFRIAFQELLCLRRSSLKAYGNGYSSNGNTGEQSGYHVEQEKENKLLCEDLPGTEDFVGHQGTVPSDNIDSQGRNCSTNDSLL
Vif A3G: HIV-1 Vif–A3G interaction blockers – biochemical, TR-FRET, GST-Vif 1-94, biotin-A3G peptide, dose response retest, primary screen (AID 1117319); TR-FRET GST-Vif / biotin-A3G peptide binding; higher % means a stronger effect; test concentration not given here; strong numbers were not always called active; inhibition, %; hits with a dose series show IC50 in µM; actives 0.57% (n = 260,000);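 active = above the screen mean plus three standard deviations and confirmed in dose response; inconclusive = results disagree or hit not tested in dose response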;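 note: Vif residues 1-94 fused to GST binding biotinylated APOBEC3G peptide 110-148; 0% = full assay without inhibitor and 100% = GST in place of GST-Vif; retest series ran down from 100 µM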
The depositor's hits bear a star; ? = inconclusive; / = no result given.

mol	UCH37 DUB inh	HNF4A DNA FP	Bfl-1 A1 inh	E coli growth	Beta2AR agonist	LANA-H2A inh	Vif A3G
CN(Cc1ccccc1)C(=O)N1CCOCC1	0.7	2.4	0.9	0.677	-3.7	2.4	3.6%
CC(=O)c1sc(NC(=O)C2CCN(c3ncnc4sc(C)c(C)c34)CC2)nc1-c1ccccc1	2.0	2.0	-0.1	0.729	-3.1	-1.1	-0.2%
O=[N+]([O-])c1cccc(-c2n[nH]c(=S)n2-c2ccc(Br)cc2)c1	3.6	-0.5	0.2	0.691	9.3	1.3	1.1%
Cc1occc1C(=O)Nc1ccc(S(N)(=O)=O)cc1	2.4	-0.5	-2.2	0.667	1.1	2.7	5.1%
S=C(Nc1ccccc1)N1CCN(c2ccccc2)CC1	0.2	-0.2	/	0.659	-3.5	/	-0.5%
CC(CCc1ccccc1)NC(=O)c1cccc(F)c1 (stereo not drawn)	2.4	-2.0	0.2	0.637	-6.5	7.9	/
CCCCN(C)Cc1c(C)[nH]c2c(ccc3ccccc32)c1=O	-15.7	-0.2	1.1	0.601	-0.3	0.2	-5.8%
CC(=O)C1=C(C)NC(SCC(=O)c2ccc(-c3ccccc3)cc2)=C(C#N)C1c1cccnc1 (stereo not drawn)	/	/	-0.3	/	/	-0.1	-39.2%
Cc1c(NC(=S)NC(=O)c2cccc(Br)c2)c(=O)n(-c2ccccc2)n1C	2.3	-2.9	0.8	0.665	1.2	10.9	/
COCCOC(=O)c1c(NC(=O)COC(=O)Cc2cccc(OC)c2)sc(C(N)=O)c1C	4.8	-2.4	0.2	0.725	4.9	1.1	/
COc1ccc(-c2ccc(CCC(=O)O)n2NC(N)=O)cc1	2.3	-2.6	0.4	0.715	-1.0	-7.3	/
Cc1ccc(/C=C/C(=O)Nc2cc(C)on2)cc1	6.7	2.3	-3.0	0.716	-0.4	5.9	-5.6%
COc1cc(CNc2ccc(N3CCOCC3)c(C(=O)O)c2)ccc1OCC(N)=O	-13.4	-1.0	0.5	0.619	6.3	-2.8	22.0%
COc1ccc(OC)c2[nH]c(=O)c(CCNC(=O)C3CCCCC3)cc12	0.3	-2.1	0.2	0.719	-5.4	-8.5	3.1%
CCOc1ncccc1C(=O)Nc1cccc(S(=O)(=O)N2CCCCC2)c1	1.8	-0.6	-0.8	0.678	3.2	-0.6	-2.3%
Cc1cc2cc(CN(Cc3ccco3)C(=O)NCc3ccccc3)c(=O)[nH]c2cc1C	0.7	-1.3	0.5	0.7	-0.8	-2.4	-4.1%
COc1ccc(NC(=O)c2ccc(-n3cccn3)nc2)c(OC)c1	-1.6	-2.2	0.2	0.689	-5.5	-11.3	-0.5%
O=C(N/N=C/c1ccc([N+](=O)[O-])o1)c1cc2ccccc2o1	/	-3.9	-0.7	/	5.2	1.8	?
Cc1ccc(CC(=O)OCC(=O)NC2CCCC(C)C2C)cc1C (stereo not drawn)	-3.0	1.3	0.5	0.733	11.1	0.1	-2.4%
COc1ccc(OC)c(C(=O)COC(=O)C2CC3CCCC(C2)C3=O)c1 (stereo not drawn)	-0.8	-1.2	1.6	0.798	-1.9	-1.4	1.1%
O=C(c1cccnc1)N(Cc1ccccc1)c1ccccc1	3.0	3.5	-0.3	0.7	2.0	-2.3	-5.3%
COc1ccc(Cn2c(C)c(C)c(C#N)c2NC(=O)Nc2cccc(Cl)c2)cc1	4.6	0.0	0.2	0.745	6.8	-0.4	1.6%
C#CCn1c(CCNC(=O)c2ccco2)nc2ccccc21	/	-2.4	1.1	/	-14.1	-4.3	/
COc1ccccc1C1=NOC(COc2ccc3c(C)cc(=O)oc3c2)C1 (stereo not drawn)	-11.5	2.1	1.8	0.643	44.2*	-2.4	9.0%
O=S(=O)(c1ccc(N2CCOCC2)nc1)N(Cc1ccccn1)Cc1ccccn1	0.0	-2.1	-0.1	0.694	-10.4	1.6	-2.4%
O=C(Nc1nc(-c2ccccn2)cs1)c1ccc(Br)s1	-29.5	0.7	-1.8	0.712	7.6	0.1	-5.2%
Cc1cc(=O)oc2cc(OCC(=O)Nc3ccc(CN4CCOCC4)cc3)c(Cl)cc12	-1.7	-0.1	1.5	0.691	9.5	2.3	/
CC1=C(C(=O)OCc2ccccc2)C(c2cccnc2)n2ncnc2N1 (stereo not drawn)	6.2	-1.5	0.2	0.685	-13.3	-1.8	-0.4%
Nc1nc(NCCc2ccccc2)nc(NCc2ccccc2)c1[N+](=O)[O-]	1.2	-3.3	-0.8	0.678	3.0	-2.6	1.7%
Cc1nccn1CC(O)COc1ccccc1 (stereo not drawn)	1.9	0.4	1.3	0.681	-1.0	4.3	/
CN1C2=C(C(=O)CC(C)(C)C2)C(c2cccs2)C2=C1CC(C)(C)CC2=O	-228.4	1.8	-0.8	0.722	-0.5	3.0	/
Cc1nc2ccccc2n1CC(=O)N1CC(=O)Nc2ccccc21	0.8	2.2	1.3	0.635	-0.9	-7.0	2.8%
Cc1ccc2nc(-c3ccccn3)cc(C(=O)NCCc3ccc(F)cc3)c2c1	-6.8	0.2	1.3	0.739	9.2	-2.0	/
CCN(CC)CCCNC(=O)CCc1c(C)n(CC)c2cc(-c3ccccc3OC)nn2c1=O	-35.3	1.6	-1.6	0.681	1.9	2.4	-6.2%
CC(=O)NCc1ccc(S(=O)(=O)NC(C)CCc2ccccc2)cc1 (stereo not drawn)	1.0	1.4	0.3	0.695	-7.9	2.7	/
CCC(NC(=S)NCc1ccc(F)cc1)c1ccccc1 (stereo not drawn)	2.3	-2.4	0.8	0.695	2.6	1.1	6.4%
Nc1c(-c2ccc(Cl)cc2)cnn1C1CCS(=O)(=O)C1 (stereo not drawn)	2.8	2.4	-1.4	0.754	1.7	2.5	32.8%
O=C(OCc1nnc(-c2ccc(Cl)cc2)o1)c1ccncc1	-0.7	0.1	-0.1	0.671	0.0	5.9	-4.2%
CC1Cc2ccccc2N1S(=O)(=O)c1cccc(C(=O)OCC(=O)NC2CCS(=O)(=O)C2)c1 (stereo not drawn)	-0.2	0.9	0.0	0.76	15.2	-7.8	0.5%
COc1ccccc1-n1c(C)nc(=O)c(-c2ccccc2)c1C	-0.1	1.7	1.0	0.75	8.6	1.2	?
Cc1cccc(-n2ncc3c2CCCC3NC(=O)CCN2CCCCO2)c1C (stereo not drawn)	0.5	-3.1	0.3	0.709	-2.5	-0.9	-11.5%
COc1cccc(C(=O)OCC(=O)NC2CCCc3ccccc32)c1O (stereo not drawn)	-3.6	-5.1	/	0.694	4.7	/	-7.3%
O=C1C=CC(=O)N1CCCCCCN1C(=O)C=CC1=O	2.6	/	-4.0	0.625	/	6.2	27.0%
CC(C)COP(=O)(c1ccc(N(C)C)cc1)C(O)c1ccncc1 (stereo not drawn)	2.9	-1.1	-0.8	0.727	5.8	-1.0	-3.2%
CCOc1ncccc1C(=O)Nc1cc(S(=O)(=O)N2CCCCC2)ccc1C	3.2	2.2	0.5	0.722	1.7	0.2	-17.1%
CN1Cc2c(N3CCOCC3)nc3sc(C(=O)c4ccccc4)c(N)c3c2CC1(C)C	0.1	-0.1	-0.3	0.696	23.0	-0.4	20.7%
CCCNC(=O)C(Cc1ccccc1)NC(=O)Cc1ccccc1 (stereo not drawn)	4.5	-6.4	3.3	0.701	-8.4	-0.8	/
CCOC(=O)N1CCC(n2c(=S)[nH]c3cc(OC)c(OC)cc3c2=O)CC1	-0.6	-1.7	1.9	0.717	-15.9	-0.1	-8.1%
COc1ccc(OC)c(S(=O)(=O)N2CCNCC2)c1	3.0	0.6	0.1	0.712	-2.8	0.5	3.1%
Cc1csc(NC(=O)C2CC(=O)N(c3ccc4c(c3)OCCO4)C2)n1 (stereo not drawn)	-1.9	4.4	0.0	0.693	-7.0	-1.1	-8.1%

(list continues)
mol	UCH37 DUB inh	HNF4A DNA FP	Bfl-1 A1 inh	E coli growth	Beta2AR agonist	LANA-H2A inh	Vif A3G
CC1(C)C2CCC1(C)C(OC(=O)CSc1nc(N)cc(=O)[nH]1)C2 (stereo not drawn)	7.4	-0.2	0.5	0.686	-9.8	4.1	24.1%
Cc1ccc(CNC(=O)Cc2noc3ccccc23)cc1	3.3	-4.3	-5.1	0.723	6.5	5.4	6.0%
NC(=O)c1ccc(NC(=O)CNC(c2ccccc2)c2ccccc2)cc1	0.3	-0.9	0.9	0.639	-0.6	-2.6	14.2%
COc1ccc([N+](=O)[O-])cc1NC(=O)C1(c2ccccc2)CCOCC1	0.2	2.3	0.4	0.703	-5.2	0.9	6.3%
CCCCc1ccc(NC(=O)N2CCN(c3cc(C)nc4ccccc34)CC2)c(C)c1	2.0	1.2	0.1	0.631	20.3	5.5	-11.5%
CS(=O)(=O)c1ccc(-c2cccc(NC(=O)c3ccc(Br)o3)c2)nn1	3.4	0.3	0.3	0.653	-0.2	-4.6	4.7%
CCC1CCCCN1C(=O)CCNS(=O)(=O)c1ccc2c(c1)oc(=O)n2C (stereo not drawn)	2.5	-2.4	-1.4	0.674	15.1	0.6	-1.1%
O=C(CCCN1C(=O)/C(=C/c2ccccc2OC(F)F)SC1=S)Nc1cccnc1	4.2	6.4	0.1	0.677	3.0	-3.3	20.5%
Nc1nonc1C(=O)N/N=C/c1cc(Br)ccc1O	/	/	-0.6	/	-3.3	-3.4	-12.4%
O=C(Nc1nnc(SCc2ccc(Cl)cc2)s1)c1ccco1	-0.4	0.6	-0.9	0.772	-12.6	1.7	-11.3%
CCOC(=O)c1ccc(NC(=O)c2ccc(CO)c(C(=O)NC3CCN(C(=O)OCC)CC3)c2)cc1	5.6	-2.3	1.3	0.689	-1.2	-4.6	9.0%
CN(C)c1ccc(-c2nnc(-c3ccccc3F)o2)cc1	-322.5	-1.0	-6.5	0.661	-5.7	-8.8	-0.1%
COc1nc(C)nc(C)c1Oc1ccc(Cl)cc1Cl	0.5	0.5	0.2	0.65	7.2	1.1	9.8%
O=[N+]([O-])c1cccc(N=Nc2ccc(O)cc2O)c1	13.8	-2.9	/	0.708	15.7	/	5.7%
COc1ccccc1NC(=O)Cn1c(O)c(N=NC(=O)c2ccccc2O)c2ccccc21	16.1	-14.2	-0.1	0.705	-0.4	-0.1	/
CCc1ccc(OC(=O)c2ccn(CC)n2)cc1	-2.7	1.0	0.4	0.75	-5.3	3.4	?
CN(C(=O)COC(=O)/C=C/c1ccccc1[N+](=O)[O-])c1ccccc1	7.0	-2.1	1.1	0.689	0.6	0.2	0.6%
COc1ccc(S(=O)(=O)N2CCCN(Cc3cccc(F)c3)CC2)cc1	2.2	4.8	1.5	0.689	-0.5	1.9	0.6%
Nc1nc(SCC(=O)NN(c2ccccc2)c2ccccc2)n[nH]1	1.0	4.4	0.4	0.69	-4.3	3.0	8.5%
CCc1ccc(C(=O)COC(=O)c2ccccc2OC)cc1	2.3	-2.0	0.7	0.7	-5.4	-8.6	15.0%
COc1cc([N+](=O)[O-])ccc1NC(=O)Cc1ccc(F)cc1	5.3	0.6	0.4	0.664	16.7	2.5	7.0%
Cc1ccc(Sc2cnn(-c3ccccc3)c(=O)c2Cl)cc1	1.1	-1.6	-0.3	0.715	0.8	-0.5	3.7%
O=C(Nc1ccc(N=Nc2ccccc2)cc1)c1ccc(Cl)cc1Cl	1.5	1.2	-0.3	0.716	0.8	-4.5	-3.6%

Screens as filed in PubChem.

Compounds were not picked by outcome. Share with any hit: about 2.1%.
